# Source: PubChem
# PrP UTR inh: inhibition of PrP 5' UTR reporter expression | cell-based PrP 5' UTR mRNA reporter, plate reader | 340,000 tested, 0.35% active | inhibition, % (test concentration not listed);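 active means every replicate at 50% or more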;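 further: 0 = median of the neutral control wells; tested in H4 reporter cells; numbers are from one replicate; inactives centre near -14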
# Autofluor counter: compound fluorescence in toxin protease inhibitor counterscreen. compound autofluorescence counterscreen, microsphere flow cytometry; hits give high values. fluorescence intensity (test concentration not listed). 360,000 tested, 3.1% active;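 active means at least 3 SD above the mean of all compounds, about 16000 in these data; inconclusive means too few beads counted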;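 further: 100 nL of 1 mM stock went into each well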
# Mtb hypoxia rep: reduces hypoxia-regulated biosensor signal in M. tuberculosis; M. tuberculosis hypoxia-regulated fluorescent reporter, fluorescence; fluorescence inhibition, % (no concentration beside the values); 300,000 tested, 0.1% active; AID 1159583;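 active means 35 to 45% if threefold the growth effect, above 45% if 1.5-fold the growth effect; inactive means the rest, general growth blockers included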;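 further: wells of about 50 µL received 100 nL stock; 0% = vehicle wells and 100% = reference inhibitor wells; whole bacteria with a GFP reporter of the hypoxia response; strong numbers were not always called active; many hits fall short of the cut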
# BJeLR viability: BJeLR cell viability loss; 300,000 tested, 0.17% active; inhibition, % (no concentration beside the values); BJeLR (HRASV12) viability, CellTiter-Glo ATP luminescence, 48 h; reference of the scale not given here;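 active means replicate mean above 50%; inconclusive means above 50% but judged a plate artefact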;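 further: 50 nL library stock added to about 25 µL; numbers are from one replicate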
# Sa ugtP lethal: growth inhibition of S. aureus ugtP deletion strain; 330,000 tested, 0.54% active; growth inhibition, % (concentration not given with the values); S. aureus RN4220 ugtP deletion, OD600 growth, 16 h; some inactives read as strong as hits; AID 1259309;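 active means z-score under -3 and OD600 up to 0.15 on both plates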;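 further: plate controls were untreated wells for no effect and antibiotic for full effect; wells of about 80 µL received 100 nL stock; the first replicate is given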
# Sa RN4220 lethal: S. aureus RN4220 growth inhibition | OD600, 16 h | inhibition, % (test concentration not listed) | 330,000 tested, 0.33% active;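 active means z-score of -3 or lower and OD600 up to 0.18 on both plates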;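 further: plate controls were untreated cells for no effect and reference antibiotic for full effect; stock transfer was 100 nL into about 80 µL; one replicate is shown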
# Mtb hypoxia rep growth: also measured in Mtb hypoxia rep; calls as there; growth inhibition, %; measured here: M. tuberculosis growth (absorbance);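 0% = vehicle and 100% = reference antibiotic; read after six days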
# * hit, by the source's call; u = inconclusive; x = no result given; & = joins results of further samples.
[1] N#Cc1c(NC(=O)c2cnn3cccnc23)sc2c1CCCC2
[2] Cc1cc(C)cc(OCC(=O)OCC(=O)Nc2cc(S(=O)(=O)N3CCOCC3)ccc2C)c1
[3] NC(=O)CSc1nc(O)cc(=O)n1-c1ccccc1
[4] Cc1ccc(C)c(N2CCN(c3nnnn3-c3ccccc3)CC2)c1
[5] O=C(Cn1c(C(F)(F)F)nc2ccccc21)N1CCCC1
[6] CC(NS(=O)(=O)c1cccc(Cl)c1)C(=O)Nc1ccc(-c2nc3ccccc3s2)cc1 (configuration not stated)
[7] CCCn1cc(C(=O)OCC)c(=O)c2cc(F)c(F)cc21
[8] CC(=O)c1ccccc1NCC(=O)Nc1ccc(C)cc1
[9] O=C(COC(=O)c1ccccc1[N+](=O)[O-])Nc1cc(S(=O)(=O)N2CCOCC2)ccc1N1CCCC1
[10] Cc1cc(Cl)ccc1C(=O)C1CCCN(C(=O)c2nonc2C)C1 (configuration not stated)

Screen / compound no.,1,2,3,4,5,6,7,8,9,10
Mtb hypoxia rep growth,-4.9,-4.0,8.6,9.4,8.9,x,14.4,6.3,14.7,6.6
Autofluor counter,4193,2801,4473,3009,3928,4173,5899,4635,4485,6191
Sa ugtP lethal,5.3,10.6,-0.1,20.3,3.4,-2.9,6.7,-2.7,13.8,1.8
PrP UTR inh,-42.5,-25.8,-11.3,-9.0,-0.4,-42.1,-36.9,-6.2,-15.5,-7.8
BJeLR viability,6.4,x,-8.5,2.5,5.3,-2.9,2.2,-6.7,4.3,1.3
Mtb hypoxia rep,-9.3,1.7,4.9,9.1,9.8,x,4.8,4.7,-0.7,22.2
Sa RN4220 lethal,4.6,6.8,1.3,4.6,-1.7,-1.2,3.4,4.4,-1.6,1.4

# Four of these compounds in a different format:
7. CCCn1cc(C(=O)OCC)c(=O)c2cc(F)c(F)cc21
  Mtb hypoxia rep growth: 14.4 | Autofluor counter: 5899 | Sa ugtP lethal: 6.7 | PrP UTR inh: -36.9 | BJeLR viability: 2.2 | Mtb hypoxia rep: 4.8 | Sa RN4220 lethal: 3.4
8. CC(=O)c1ccccc1NCC(=O)Nc1ccc(C)cc1
  Mtb hypoxia rep growth: 6.3 | Autofluor counter: 4635 | Sa ugtP lethal: -2.7 | PrP UTR inh: -6.2 | BJeLR viability: -6.7 | Mtb hypoxia rep: 4.7 | Sa RN4220 lethal: 4.4
9. O=C(COC(=O)c1ccccc1[N+](=O)[O-])Nc1cc(S(=O)(=O)N2CCOCC2)ccc1N1CCCC1
  Mtb hypoxia rep growth: 14.7 | Autofluor counter: 4485 | Sa ugtP lethal: 13.8 | PrP UTR inh: -15.5 | BJeLR viability: 4.3 | Mtb hypoxia rep: -0.7 | Sa RN4220 lethal: -1.6
10. Cc1cc(Cl)ccc1C(=O)C1CCCN(C(=O)c2nonc2C)C1 (configuration not stated)
  Mtb hypoxia rep growth: 6.6 | Autofluor counter: 6191 | Sa ugtP lethal: 1.8 | PrP UTR inh: -7.8 | BJeLR viability: 1.3 | Mtb hypoxia rep: 22.2 | Sa RN4220 lethal: 1.4

# (further entries)
[11] COc1cc(C2CC(=O)NC3=C2C(=O)CC(C)(C)C3)cc(OC)c1O (configuration not stated)
[12] Cc1cc(SCC(=O)NN=C2CCN(C(C)C)CC2)c(C)cc1Br
[13] CC1=NN(c2ccccc2)C(=O)C1/C=C1\C(=O)NC(=O)N(c2ccc(C)c(C)c2)C1=O (configuration not stated)
[14] Cn1c(CCNS(=O)(=O)c2ccc(F)cc2)nnc1SCc1cccnc1
[15] COc1cc(SC)ccc1C(=O)Nc1ccccc1C#N
[16] CC(=O)N1N=C(c2ccccc2)OC1c1ccc([N+](=O)[O-])s1 (configuration not stated)
[17] COc1cc(NC(=S)N2c3ccccc3CC2C)cc(OC)c1 (configuration not stated)
[18] CC(C)NC(=O)c1onc(CSc2ccc(F)cc2)c1C(=O)NC(C)C
[19] Cc1cc(S(=O)(=O)NCc2cccs2)ccc1-n1cnnn1
[20] CC(C)c1c(C(=O)NN=Cc2ccsc2)nnn1-c1nonc1N

Screen / compound no.,11,12,13,14,15,16,17,18,19,20
Mtb hypoxia rep growth,x,7.1,x,-4.8,2.7,9.8,2.9,5.4,2.2,2.9
Autofluor counter,2345,3108,3969,3485,3230,4613,6603,3974,2531,x
Sa ugtP lethal,0.4,2.3,-1.2,4.5,12.0,8.8,-15.8,0.8,6.4,4.7
PrP UTR inh,6.7,-46.3,-12.5,-19.1,-120.3,-20.8,-7.7,-15.2,-23.9,x
BJeLR viability,2.1,-3.1,-6.9,-1.4,-1.2,-4.6,-1.3,7.2,3.3,x
Mtb hypoxia rep,x,1.6,x,-8.2,2.6,-2.4,5.3,-3.4,8.1,1.0
Sa RN4220 lethal,1.9,2.7,2.3,2.8,4.4,3.6,0.3,9.0,6.8,2.5

[21] CCCCSCCCNC(=O)C1CCC(CNS(=O)(=O)c2ccc(NC(C)=O)cc2)CC1 (configuration not stated)
[22] CN(CCCNC(=O)Cn1cccc1C(=O)c1ccccc1)C1CCCCC1
[23] CC(=O)Oc1ccc(N(C(C)=O)S(=O)(=O)c2cccs2)cc1
[24] COc1cccc(C2CC(=O)Nc3cc(OC)c(OC)cc32)c1 (configuration not stated)
[25] C=CCN1C(=O)c2ccc(C(=O)N3CCN(S(=O)(=O)c4cccc([N+](=O)[O-])c4)CC3)cc2C1=O
[26] CCCc1nn2c(=O)cc(CSCC(=O)Nc3nnc(C(C)C)s3)nc2s1
[27] COc1cccc(/C=C/C(=O)NCCc2ccc3c(c2)OCCO3)c1
[28] Cc1occc1C(=O)N=Nc1c(O)n(C)c2ccccc12
[29] COC(=O)c1ccc2c(=O)[nH]c(CSc3nc(-c4ccc(F)cc4)cs3)nc2c1
[30] Cc1ccc(CN2CCN(c3ccccn3)CC2)s1

Screen / compound no.,21,22,23,24,25,26,27,28,29,30
Mtb hypoxia rep growth,-4.4,9.8,5.1,0.0,10.9,-1.3,2.7,2.2,x,0.8
Autofluor counter,4091,4453,10740,3970,3305,5234,2722,2422,2998,9169
Sa ugtP lethal,0.5,8.6,5.8,3.2,7.7,-1.6,2.6,3.5,x,11.9
PrP UTR inh,-21.5,-3.8,-28.4,-2.6,-24.6,-22.4,-4.1,-45.5,-38.5,-15.3
BJeLR viability,6.3,2.4,5.5,4.1,x,10.5,9.4,8.6,-8.7,-9.2
Mtb hypoxia rep,-0.8,7.2,2.2,-5.9,11.4,-3.7,7.4,10.5,x,7.3
Sa RN4220 lethal,-1.3,-2.1,2.7,2.9,2.3,-1.8,0.9,5.0,x,0.9

# Reprinted at random: 2 entries already listed.
[23] CC(=O)Oc1ccc(N(C(C)=O)S(=O)(=O)c2cccs2)cc1
[26] CCCc1nn2c(=O)cc(CSCC(=O)Nc3nnc(C(C)C)s3)nc2s1

Screen / compound no.,23,26
Mtb hypoxia rep growth,5.1,-1.3
Autofluor counter,10740,5234
Sa ugtP lethal,5.8,-1.6
PrP UTR inh,-28.4,-22.4
BJeLR viability,5.5,10.5
Mtb hypoxia rep,2.2,-3.7
Sa RN4220 lethal,2.7,-1.8

# (list continues)
[31] O=C(CCCCCn1c(=S)[nH]c2ccccc2c1=O)NCc1ccc2c(c1)OCO2
[32] CCNC(=S)N/N=C/c1cn(Cc2ccc(F)cc2)c2ccccc12
[33] COc1ccc(N2CCN(C(=O)CCCOc3cc(=O)n(C)c4ccccc34)CC2)cc1
[34] Cc1nn(-c2ccccc2)c(C)c1NC(=O)COC(=O)C1CC(=O)N(CCc2ccccc2)C1 (configuration not stated)
[35] COC(C)(C)c1cc(C(C)(C)C)nc(N)n1
[36] O=C(COC(=O)Cc1ccsc1)NCc1ccc(Cl)cc1
[37] O=C(NN=Cc1ccc2c(c1)OCO2)c1ccco1
[38] O=[N+]([O-])c1ccc(Sc2cccc3cccnc23)c2cccnc12
[39] COc1ccccc1OCCNC(=O)c1ccc(S(=O)(=O)N(C)C)cc1
[40] COc1ccccc1CC(=O)NCc1ccc2c(c1)OCO2

Screen / compound no.,31,32,33,34,35,36,37,38,39,40
Mtb hypoxia rep growth,-6.9,x,12.8,9.3,7.3,-5.0,9.3,9.0,-0.6,8.1
Autofluor counter,23096*,2394,23028*,u,11284,2204,x,4230,8507,7160
Sa ugtP lethal,-10.6,x,10.1,-1.6,3.5,8.7,-1.2,14.6,7.3,7.2
PrP UTR inh,-18.3,-14.0,-23.1,-4.5,-28.4,-32.9,x,-32.2,-5.2,-5.6
BJeLR viability,-6.1,-2.1,1.1,2.7,-8.0,-0.5,x,8.2,2.9,-11.1
Mtb hypoxia rep,-15.1,x,-0.8,7.1,1.1,-1.0,2.5,4.3,12.2,6.6
Sa RN4220 lethal,-1.6,x,-0.1,-1.1,2.5,-1.2,1.3,-8.9,2.3,6.6

[41] C=CCSc1nnc(NC(=O)C2CC(=O)N(Cc3ccc(C)cc3)C2)s1 (configuration not stated)
[42] COc1cc(/C=C2\SC(=S)N(CC(=O)O)C2=O)ccc1OS(=O)(=O)c1ccc(C)cc1
[43] Cc1[nH]c(=S)c(C#N)c(-c2ccccc2)c1C(=O)Nc1ccccc1
[44] CCOC(=O)N1CCN(C(=O)c2cc(COc3ccc4ncccc4c3)on2)CC1
[45] C[C@H](CO)N1C[C@H](C)[C@@H](CN(C)S(=O)(=O)c2ccc(F)cc2)Oc2ccc(NC(=O)Cc3ccccc3)cc2C1=O
[46] Cc1ccccc1OCc1n(CC(=O)OC2CC(C)CCC2C(C)C)c2ccccc2[n+]1C (configuration not stated)
[47] CCC1CCCCN1S(=O)(=O)c1ccc(S(=O)(=O)N(Cc2cccs2)C2CC2)cc1 (configuration not stated)
[48] COc1ccc(C2CC(c3cccs3)=NN2C(=O)CSc2nc3ccccc3o2)cc1 (configuration not stated)
[49] CCc1ccccc1Nc1nc(N)nc(COC(=O)c2c(C)noc2C)n1
[50] COc1ccc(-c2nc3c(Br)c(N)c(Br)cc3o2)cc1

Screen / compound no.,41,42,43,44,45,46,47,48,49,50
Mtb hypoxia rep growth,-0.4,-7.4,0.5,4.0,9.9,29.0,3.8,0.5,-2.7,3.2
Autofluor counter,4069,4437,5779,3480,3672,5146&3351,9000,2099,6101,11070
Sa ugtP lethal,5.0,-0.1,2.8,0.3,-9.0,100.8*,5.1,-6.1,5.8,-14.2
PrP UTR inh,-2.8,-18.8,-11.8,-4.6,-22.8,-30.5&-10.4,-11.5,-5.7,-17.5,-68.9
BJeLR viability,x,-7.2,-3.3,15.2,x,5.3&10.5,-0.7,1.2,x,x
Mtb hypoxia rep,-0.7,-1.2,17.7,-3.3,2.2,22.0,5.4,-1.6,4.2,-0.9
Sa RN4220 lethal,2.3,4.6,1.2,0.3,-12.6,100.1*,14.6,4.5,7.3,3.9

[51] O=C(Nn1cnnc1)c1cc(Cl)ccc1Cl
[52] O=C(CN1C(=O)C2CCc3[nH]c4ccccc4c3C2C1=O)N1CCCC1 (configuration not stated)
[53] COc1ccc(CNC(=O)c2c(O)c3ccccc3n(C)c2=O)cc1OC
[54] Cc1nn(Cc2ccc(C(=O)N3N=C(C(F)F)CC3(O)C(F)F)o2)c(C)c1[N+](=O)[O-] (configuration not stated)
[55] Cc1c(C=CC(=O)c2ccc(O)cc2)cnn1C
[56] CCOc1ccc(S(=O)(=O)Nc2ccc(C(=O)NN=Cc3c(C)nn(-c4ccccc4)c3N3CCCC3)cc2)cc1
[57] CCOc1ccc2cc(S(=O)(=O)N3CCN(C)CC3)ccc2c1
[58] O=C(O)C(Cc1c[nH]c2ccccc12)N1Cc2ccccc2C1=O (configuration not stated)
[59] Cc1ccc(NC(=O)Nc2c(C)n(C)n(-c3ccccc3)c2=O)cc1C
[60] COC(=O)[C@]1(C)N[C@H](CN(C)C(=O)c2ccc(C(C)(C)C)cc2)[C@@H]2C(=O)N(C)C(=O)[C@@H]21

Screen / compound no.,51,52,53,54,55,56,57,58,59,60
Mtb hypoxia rep growth,0.5,x,5.7,5.4,5.4,-0.3,30.0,3.1,3.9,6.6
Autofluor counter,4249,2266,3198,2100,x,x,3505,3676,4142,3522
Sa ugtP lethal,1.4,2.6,12.5,-1.6,-5.3,-4.6,4.7,-6.8,6.1,2.5
PrP UTR inh,-22.3,-15.7&1.9,-14.2,-9.4,x,x,2.4,-22.6,-10.7,-11.1
BJeLR viability,-9.3,-1.5,-3.6,-3.9,x,x,2.3,-11.7,-11.1,x
Mtb hypoxia rep,4.0,x,2.0,1.8,5.0,-7.3,14.9,4.6,7.5,2.5
Sa RN4220 lethal,2.0,-0.9,13.1,5.4,13.2,-3.4,5.0,1.0,-2.6,0.9
